Screening results from PubChem.
zVAD death inh: inhibitors of zVAD-triggered necroptosis, primary screen, L929 cells; L929 zVAD necroptosis rescue, ATP luminescence, 24 h; with zVAD 60 µM; viability rescue, % at 10 µM; 0.38% of 220,000 active; AID 1377, 2008;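 active = activation, scaled between plate controls, above about 75%, limit read from the data; inactive = activation under that limit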;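 also: 0% = zVAD with DMSO and 100% = DMSO alone without zVAD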
TNF necrop inh: inhibitors of TNF-alpha triggered necroptosis, primary screen, cell-based, Jurkat FADD-/-, single concentration; Jurkat FADD-/- TNF necroptosis rescue, ATP luminescence, 24 h; 0 = TNF only, 100 = no-TNF cells; activation (protection from cell death), % at 10 µM; 0.068% of 220,000 active;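 active = activation, meaning protection from cell death, of at least 50% relative to plate controls; inactive = activation below 50%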;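 also: necroptosis triggered by 40 ng/mL TNF-alpha added together with compound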
Hck-Nef inh: inhibitors of Nef-activated human Hck kinase, primary screen, biochemical, Z-Lyte FRET, 384-well, Hck-YEEI. Tyrosine-protein kinase HCK (Homo sapiens), P08631. Recombinant Hck-YEEI plus Nef, Z-Lyte FRET kinase assay. inhibition, % at 20 µM. 0.68% of 220,000 active. AID 463187, 2010;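 active = Hck-Nef kinase inhibition above about 50%, limit read from the data; inactive = inhibition below that limit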;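 also: 0% = DMSO with Hck plus Nef and 100% = Hck alone without Nef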
Target sequence (P08631 whole entry, looked up): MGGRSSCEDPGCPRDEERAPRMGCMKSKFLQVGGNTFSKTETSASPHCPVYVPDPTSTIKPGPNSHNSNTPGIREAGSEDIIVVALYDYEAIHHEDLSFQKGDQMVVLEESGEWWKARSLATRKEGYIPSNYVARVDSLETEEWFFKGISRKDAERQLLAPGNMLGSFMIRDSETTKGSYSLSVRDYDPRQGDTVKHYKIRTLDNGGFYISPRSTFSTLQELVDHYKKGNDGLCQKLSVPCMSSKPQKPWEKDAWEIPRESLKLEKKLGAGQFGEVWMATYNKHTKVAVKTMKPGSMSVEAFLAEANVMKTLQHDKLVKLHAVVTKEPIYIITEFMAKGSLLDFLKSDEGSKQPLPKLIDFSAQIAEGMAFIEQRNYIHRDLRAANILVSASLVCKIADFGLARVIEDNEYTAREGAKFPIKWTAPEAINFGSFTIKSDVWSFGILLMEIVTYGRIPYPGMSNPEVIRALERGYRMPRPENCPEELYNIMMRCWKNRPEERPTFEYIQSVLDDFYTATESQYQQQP
PGE2 EP2 inh: human EP2 receptor antagonists, primary screen, TR-FRET cAMP, C6 glioma cells | Prostaglandin E2 receptor EP2 subtype (Homo sapiens), P43116 | C6 glioma cells expressing human EP2; cells stimulated with saturating PGE2 | inhibition, % at 25 µM | 0.52% of 260,000 active | AID 1422, 2008;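 active = percent inhibition above 40 after rounding to a whole number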;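 also: rat C6 glioma host cells with rolipram phosphodiesterase inhibitor present; the protocol text gives 20 µM as final concentration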
EP2 modulator: EP2 receptor modulators, cAMP readout, primary screen, cell-based, HTRF cAMP, PGE2 stimulation; 0.83% of 260,000 active; EP2-expressing cells, cAMP HTRF FRET, PGE2 co-stimulation; induction, % at 25 µM; Prostaglandin E2 receptor EP2 subtype (Homo sapiens), P43116;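 active = compounds whose cAMP rise, as percent of the full-agonist control response, exceeds 60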;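 also: rat C6 glioma line stably carrying human EP2 under a CMV promoter; the protocol text gives 20 µM as final concentration; 100% = response of wells given 1 µM PGE2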
PERK inh: block of dimerizer-induced PERK translation repression, primary screen, PERK inhibitor project, CHO PERK-DD cells, SEAP luminescence, HTS; Eukaryotic translation initiation factor 2-alpha kinase 3 (Homo sapiens), Q9NZJ5; CHO PERK-DD fusion, SEAP luminescence translation reporter; inhibition, % at 5.6 µM; 0.17% of 220,000 active;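 active = inhibition above the mean inhibition of all tested compounds plus 3 SD, set separately per screening campaign, cut at about 2.9% in these data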;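 also: PERK kinase domain activated by AP20187 dimerizer at 100 nM; 0% = DMSO with dimerizer and 100% = rapamycin at 8.4 µM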
RBBP9 inhibitor: human RBBP9 inhibitors, primary screen, biochemical, fluorescence polarization, FP-Rh probe, HTS; 0.2% of 220,000 active; AID 1515, 2009; Serine hydrolase RBBP9 (Homo sapiens), O75884; recombinant RBBP9; inhibition, % at 7.94 µM;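 active = inhibition above the campaign mean of all tested compounds plus 3 SD, cut at about 14% in these data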;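 also: plate controls were DMSO wells with RBBP9 for no effect and wells lacking RBBP9 protein for full effect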
Target sequence (O75884 whole entry, looked up): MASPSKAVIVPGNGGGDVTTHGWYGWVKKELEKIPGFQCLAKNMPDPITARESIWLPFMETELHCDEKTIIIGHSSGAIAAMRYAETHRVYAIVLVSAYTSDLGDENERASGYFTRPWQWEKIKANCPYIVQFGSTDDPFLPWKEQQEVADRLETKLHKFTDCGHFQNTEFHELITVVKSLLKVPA
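System: RBBP9 protein / Buffer or medium: Tris/NaCl buffer pH 8.0 with 0.1% Pluronic / Probe or stimulus: Serine-hydrolase probe FP-Rh, 375 nM pre-mixing / Dosing: 7.94 µM single dose, 0.794% DMSO / Times: enzyme-compound preincubation 30 min, then probe labeling 45 min, 25 °C / Technique: fluorescence polarization (mP), excitation 525 nm, emission 598 nm / Replication: singlicate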
Active calls of the source: *; · = not tested or not shown; & = joins results of further samples. Not all compounds are listed; rates above refer to the full screens.

No.	SMILES	zVAD death inh	TNF necrop inh	Hck-Nef inh	PGE2 EP2 inh	EP2 modulator	PERK inh	RBBP9 inhibitor
1	COc1ccccc1-c1c(C)oc2c(CN3CCN(CCO)CC3)c(O)ccc2c1=O	-0.3	-2.8	3	·	30	0.7	1
2	Cc1ccc(NC(=O)c2ccc(S(=O)(=O)N3CCCCC3)cc2)cc1	0.2	-0.3	1	8	4	0.9	-7
3	CCN(CC)C(=O)C(=O)N/N=C/c1cccs1	-0.3	-2.4	-1	-4	8	3.1*	4
4	CNCCCC12CCC(c3ccccc31)c1ccccc12	9.3&3.8	-2.8&0.6	3&3	10&9&8&12	3&9&11&7	-2.2&0.8&-0.3	-10&-5&-3
5	CCCCn1nc2cc(C(=O)NCc3ccc(C(F)(F)F)cc3C(F)(F)F)ccc2c1OCC	0.1	1.2	-1	6	22	1.2	-2
6	CCN(CC)CCn1c2ccccc2c2cnc(N)c(C#N)c21	75*	-10	7	12	26	-1.0	-1
7	O=C(NCC1CCCO1)C1CCN(S(=O)(=O)N2CCCC2)CC1 (stereo not drawn)	0.3	-2.5	2	6	11	1.3	-2
8	O=C(c1ccc2c(c1)C(=O)N(Cc1ccco1)C2=O)N1CCOCC1	1.6	0.6	0	10	19	-0.8	1
9	O=C1Nc2cc(C(=O)N3CCOCC3)ccc2SC1N1CCOCC1 (stereo not drawn)	0.9	0.0	5	·	-20	1.8	-7
10	COc1ccc(Cl)cc1C(=O)NNC(=S)NC(=O)c1cc(-c2ccc(Cl)cc2)nc2ccccc12	0.3	-17	0	11	-19	0.5	-2
11	CCCOc1ccc(C2C(C(=O)c3ccco3)=C(O)C(=O)N2CCN2CCOCC2)cc1OC (stereo not drawn)	0.1	-0.5	1	·	31	0.5	-7
12	Cc1ccc(-n2c(=O)cc(N3CCC(C)CC3)[nH]c2=O)cc1	0.5	0.6	2	5	-10	0.7	2
13	O=C(NC1(C(F)(F)F)C(=O)Nc2c1c(=O)[nH]c(=O)n2Cc1ccccc1)c1ccc(Cl)cc1Cl (stereo not drawn)	0.4	-0.4	1	10	31	1.2	1
14	COC(=O)[C@H]1[C@H]2C[C@H]3c4[nH]c5ccccc5c4CCN3C[C@H]2CC[C@@H]1O	·	·	·	8&13	9&9	·	·
15	CCCc1nnc(NC(=O)C(CC)OC(=O)c2cc(C)nc3ccccc23)s1 (stereo not drawn)	0.1	-2.5	-1	7	17	0.1	-5
16	CCCOc1cccc(-c2cc(-c3n[nH]c(=S)n3CC)c3ccccc3n2)c1	0.7	4.9	-2	8	29	-0.6	-10
17	COC(=O)N(C)c1ccccc1C(=O)N1CCOCC1	0.7	-0.8	0	16	7	1.7	-6
18	CCCCNc1cc(=O)n(C)c(=O)n1C	0.2	-1.8	1	7	21	1.8	-9
19	CCCCn1c(N)c(C(=S)NC(=O)CC(C)C)c(=O)n(C)c1=O	0.1	1.7	-1	15	-4	0.0	-10
20	CC(C)C(NC(=O)c1ccc2c(c1)OCO2)C(=O)N/N=C\c1ccco1 (stereo not drawn)	0.1	-2.5	0	1	6	0.3	-4
21	CCCCN(CCCC)c1nc(OC)nc(-n2nnc(C(C)=O)c2C)n1	-0.5	-1.9	2	7	42	-1.0	4
22	Cc1ccc(CNC(=O)CCNC(=O)c2ccco2)cc1	0.1	-0.6	1	16	6	1.3	-2
23	COc1ccc(CCNc2cc(N3CCN(C(=O)c4ccccc4F)CC3)ccc2[N+](=O)[O-])cc1OC	4.6	-17	2	·	-28	0.0	-5
24	Cc1ccc(S(=O)(=O)N2CCN(C(=O)CN3CCOCC3)C2)cc1	0.1	0.9	2	17	8	1.4	5
25	CN1c2cccc3cccc(c23)N(C)C1c1cccs1	-0.3	-3.1	0	5	64*	1.7	-2

Some entries already given, reduced to EP2 modulator, PERK inh and TNF necrop inh:
no.	mol	EP2 modulator	PERK inh	TNF necrop inh
5	CCCCn1nc2cc(C(=O)NCc3ccc(C(F)(F)F)cc3C(F)(F)F)ccc2c1OCC	22	1.2	1.2
17	COC(=O)N(C)c1ccccc1C(=O)N1CCOCC1	7	1.7	-0.8
19	CCCCn1c(N)c(C(=S)NC(=O)CC(C)C)c(=O)n(C)c1=O	-4	0.0	1.7
9	O=C1Nc2cc(C(=O)N3CCOCC3)ccc2SC1N1CCOCC1 (stereo not drawn)	-20	1.8	0.0

(further entries)
No.	SMILES	zVAD death inh	TNF necrop inh	Hck-Nef inh	PGE2 EP2 inh	EP2 modulator	PERK inh	RBBP9 inhibitor
26	COc1ccc(OC)c(NC(=O)C(CC(=O)O)NCc2ccco2)c1 (stereo not drawn)	0.2	-3.7	0	5	39	1.5	-12
27	O=C(NCCN1CCOCC1)c1cnn2c(-c3ccccc3)cc(-c3ccccc3)nc12	-0.3	-7.7	1	3	25	-0.4	-2
28	CCC(=O)NC(=S)NNC(=O)c1ccc(OC)cc1	-0.1	-6.3	2	5	27	0.2	-4
29	CCn1cc(C(=O)NCC2CCCO2)c(=O)c2cc(F)c(N3CCN(C)CC3)cc21 (stereo not drawn)	0.1	1.5	3	17	5	0.2	2
30	COc1cccc(C2c3c(-c4ccccc4)n[nH]c3C(=O)N2c2ccc(C(=O)O)cc2)c1 (stereo not drawn)	0.2	-2.4	3	6	22	0.2	-8
31	COc1c(Cl)cnn(-c2ccc(C)cc2)c1=O	-0.5	-13	-1	10	14	0.1	0
32	Cc1nn(C)c(Oc2ccc(Cl)cc2)c1C(=O)Nc1ccc(F)cc1F	-0.1	-3.6	2	3	16	-0.9	2
33	Cc1nc(N2CCN(S(=O)(=O)c3ccccc3)CC2)c2c3c(sc2n1)CC(C)CC3 (stereo not drawn)	-0.1	-9.4	-1	4	18	1.2	-5
34	O=C(COC(=O)c1ccccc1Nc1ccc(SC(F)F)cc1)NCc1ccco1	0.3	-2.2	3	11	28	0.4	4
35	CCOC(=O)Cn1nc(C)n(-c2ccc(C(C)(C)C)cc2)c1=O	2.3	-0.2	1	8	19	0.9	-12

Retrieved by structure from above:
No.	SMILES	zVAD death inh	TNF necrop inh	Hck-Nef inh	PGE2 EP2 inh	EP2 modulator	PERK inh	RBBP9 inhibitor
33	Cc1nc(N2CCN(S(=O)(=O)c3ccccc3)CC2)c2c3c(sc2n1)CC(C)CC3 (stereo not drawn)	-0.1	-9.4	-1	4	18	1.2	-5
31	COc1c(Cl)cnn(-c2ccc(C)cc2)c1=O	-0.5	-13	-1	10	14	0.1	0

Grouped by structure, the entries above with fluorine.
No.	SMILES	zVAD death inh	TNF necrop inh	Hck-Nef inh	PGE2 EP2 inh	EP2 modulator	PERK inh	RBBP9 inhibitor
5	CCCCn1nc2cc(C(=O)NCc3ccc(C(F)(F)F)cc3C(F)(F)F)ccc2c1OCC	0.1	1.2	-1	6	22	1.2	-2
13	O=C(NC1(C(F)(F)F)C(=O)Nc2c1c(=O)[nH]c(=O)n2Cc1ccccc1)c1ccc(Cl)cc1Cl (stereo not drawn)	0.4	-0.4	1	10	31	1.2	1
23	COc1ccc(CCNc2cc(N3CCN(C(=O)c4ccccc4F)CC3)ccc2[N+](=O)[O-])cc1OC	4.6	-17	2	·	-28	0.0	-5
29	CCn1cc(C(=O)NCC2CCCO2)c(=O)c2cc(F)c(N3CCN(C)CC3)cc21 (stereo not drawn)	0.1	1.5	3	17	5	0.2	2
32	Cc1nn(C)c(Oc2ccc(Cl)cc2)c1C(=O)Nc1ccc(F)cc1F	-0.1	-3.6	2	3	16	-0.9	2
34	O=C(COC(=O)c1ccccc1Nc1ccc(SC(F)F)cc1)NCc1ccco1	0.3	-2.2	3	11	28	0.4	4

Down the list, from the results shown:
Compounds 21–25 in TNF necrop inh, in turn: -1.9, -0.6, -17, 0.9, -3.1
